LANA-H2B inh – blockers of LANA interaction with H2A/H2B – biochemical, FP readout, HTS, primary screen; Protein LANA1 (Human herpesvirus 8 type P (isolate GK18)), Q9QR71; cell-free LANA-H2A/H2B peptide, fluorescence polarization; inhibition, % (no concentration beside the values); 0.6% of 320,000 active; AID 2629, 2010; in the data active means inhibition mostly above about 10%, no sharp cut-off; inactive means mostly below about 6.7%;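 further: stock transfer was 7.5 nL into about 10 µL; 0% = median of vehicle wells and 100% = median of positive control wells; one replicate is shown; the record names a cut of 25% in any replicate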
HNF4A DNA FP – change in binding of human HNF4A to DNA, primary screen, biochemical, fluorescence polarization, FITC-DNA; 1 h; AID 1224865, 2016; activity change, % at 10 µM; 0.3% of 360,000 active; Hepatocyte nuclear factor 4-alpha (Homo sapiens), P41235; in the data active means activity change above about 30%, passing the limit was not always enough;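 further: controls were the assay level and a saturating level of protein; the project sought stronger binding though the title names inhibitors; some compounds called inactive have numbers as strong as hits; positive values seem to mean higher polarization but the record does not say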
FGF22 binding – binders of human FGF22 protein, primary screen, FGF22 synaptogenesis inhibitor project, biophysical, thermal shift, single point. 1.5% of 340,000 active. recombinant FGF22 thermal shift, SYPRO orange fluorescence; percent of sucrose octasulfate shift, DMSO zero. Fibroblast growth factor 22 (Homo sapiens), Q9HCT0. AID 651658, 2012. calls only at 9.99 µM;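 active means melting point raised past a set limit in the mean and every replicate; three in four hits are not shown here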
Target sequence (Q9HCT0 whole entry, looked up): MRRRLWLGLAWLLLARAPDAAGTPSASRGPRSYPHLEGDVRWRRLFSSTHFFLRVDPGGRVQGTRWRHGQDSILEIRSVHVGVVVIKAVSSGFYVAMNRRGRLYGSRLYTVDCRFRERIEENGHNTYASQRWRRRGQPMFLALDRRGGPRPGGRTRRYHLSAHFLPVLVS
B2AR ag – beta2AR agonists driving receptor internalization, primary screen, cell-based, FAP fluorogen, flow cytometry; Beta-2 adrenergic receptor (Homo sapiens), P07550; AID 504454, 2011; 0.43% of 340,000 active; response, % (test concentration not listed); Am2.2-beta2AR cells; reference of the scale not given here;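 active means response above a set limit, near 3 SD of response in nonfluorescent compounds, cut at about 42% in these data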;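 further: stock transfer was 100 nL into about 11 µL; a reference agonist was the positive control; negative values mostly stem from fluorescent compounds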
Target sequence (P07550 whole entry, looked up): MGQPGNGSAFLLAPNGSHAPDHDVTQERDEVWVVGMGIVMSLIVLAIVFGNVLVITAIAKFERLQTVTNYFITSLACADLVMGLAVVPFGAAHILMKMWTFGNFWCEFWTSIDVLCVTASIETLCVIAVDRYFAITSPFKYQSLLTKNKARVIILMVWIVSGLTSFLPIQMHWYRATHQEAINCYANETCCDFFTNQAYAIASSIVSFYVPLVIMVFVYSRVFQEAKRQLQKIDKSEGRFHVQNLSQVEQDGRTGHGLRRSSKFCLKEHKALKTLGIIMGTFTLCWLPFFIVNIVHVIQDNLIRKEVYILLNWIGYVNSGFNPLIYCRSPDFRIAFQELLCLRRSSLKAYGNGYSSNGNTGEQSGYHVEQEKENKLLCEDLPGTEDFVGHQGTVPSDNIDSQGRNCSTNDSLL
E coli growth – E. coli growth inhibition, primary screen, OD600 | Escherichia coli growth, 23 h; stronger effect = lower value | OD600 absorbance (concentration not given with the values) | 0.21% of 330,000 active | AID 1053175, 2014;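 active means OD600 absorbance below the run mean of sample wells minus 3.6 SD, in any replicate, cut at about 0.56 in these data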;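 further: stock transfer was 300 nL into about 60 µL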
UCH37 inh – inhibitors of human UCH37 deubiquitinase, primary screen, biochemical, Ub-AMC cleavage, fluorescence; Ubiquitin carboxyl-terminal hydrolase isozyme L5 (Homo sapiens), Q9Y5K5; purified proteasome/UCH37; inhibition, % (test concentration not listed); 0.33% of 330,000 active; AID 588478, 2011;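 active means mean of two replicates above 20%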;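 further: 0% = compound-free wells with enzyme and 100% = wells lacking proteasome; stock transfer was 100 nL into about 20 µL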
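Material: human UCH37 enzyme supplied as purified proteasome complex / Amount: 0.15 nM proteasome as dispensed / Buffer or medium: pH 7.4 Tris-HCl (50 mM) with ovalbumin, ATP-MgCl2, DTT / Times: preincubation 30 min, reaction 25 min, room temperature / Technique: AMC fluorescence from Ub-AMC cleavage, excitation 355 nm, emission 460 nm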
ALR inh – inhibitors of human ALR sulfhydryl oxidase, primary screen, biochemical, H2O2 detection, HRP-luminol luminescence, single point; FAD-linked sulfhydryl oxidase ALR (Homo sapiens), P55789; purified ALR, DTT oxidation; inhibition, % (no concentration beside the values); 3.8% of 290,000 active; AID 485317, 2010;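 active means mean and each replicate at 75% or more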;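 further: stock transfer was 7.5 nL into about 7.5 µL; 0% = neutral wells and 100% = wells with inactivated enzyme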
Target sequence (P55789 whole entry, looked up): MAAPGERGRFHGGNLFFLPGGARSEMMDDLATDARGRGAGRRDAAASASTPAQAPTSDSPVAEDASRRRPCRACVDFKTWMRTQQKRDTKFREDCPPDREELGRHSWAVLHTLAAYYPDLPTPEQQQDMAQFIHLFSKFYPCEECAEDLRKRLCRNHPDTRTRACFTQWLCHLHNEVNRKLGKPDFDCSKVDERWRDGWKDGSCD
An asterisk follows results filed as active; i = inactive; nt = not tested or not shown.

SMILES	LANA-H2B inh	HNF4A DNA FP	FGF22 binding	B2AR ag	E coli growth	UCH37 inh	ALR inh
CCCC(=O)N1CC2(C)CN(C(=O)CCC)CC(CCC)(C1)C2=O	1.4	-2.1	nt	-1.1	0.749	-1.3	-2.4
Cc1nnc(NC(=O)CSc2nnc(C)n2Cc2ccccc2)s1	3.8	1.6	nt	4.2	0.698	1.2	nt
CCC(C)CCCCCCCCCCC(=O)O (stereo unspecified)	-0.3	4.5	i	-0.3	0.734	18.1	14.5
CC(C)c1c(O)nc(SCCOc2ccc(Cl)cc2)[nH]c1=O	3.2	-3.6	i	7.0	0.669	0.2	nt
COc1cccc(NC(=O)N2CCCC2C(=O)NCc2ccco2)c1 (stereo unspecified)	-1.8	0.2	i	-0.1	0.631	1.5	-4.4
CCCCSc1c(C)c2cc3c(cc2[nH]c1=O)OCO3	2.0	0.2	nt	0.7	0.715	-20.6	0.0
Cc1ccc(-c2nnc(SCC(=O)N/N=C/c3cccs3)n2-c2ccc(C)cc2)cc1	2.4	0.3	nt	-11.9	nt	nt	2.8
CCOc1ccccc1CN1CCCC(C(=O)c2ccc(OC)c(OC)c2)C1 (stereo unspecified)	-0.7	-1.4	i	-0.4	0.625	-2.2	-19.4
O=C(O)Cn1ncc2ccccc2c1=O	-3.2	-4.0	i	-3.6	0.699	6.0	-3.6
O=C(c1nc[nH]c1C(=O)N1CCN(c2ccccc2)CC1)N1CCN(c2ccccc2)CC1	3.4	-5.6	i	1.4	0.709	2.0	93.4*
COc1oc(-c2ccccc2)nc1C(F)(F)F	-1.3	1.8	nt	-3.6	0.65	2.2	-3.4
CC(OC(=O)/C=C/c1ccccc1)C(=O)NC1CCCCC1C (stereo unspecified)	1.4	2.9	i	-7.2	0.689	3.8	-1.1
C/C=C(\C)CN1CCC(n2nccc2NC(=O)CCOc2ccccc2)CC1	-7.6	2.1	i	25.5	0.655	-0.2	-2.3
O=C(NNS(=O)(=O)c1ccc(F)cc1)c1ccc(O)cc1	-0.4	7.4	i	-2.5	0.665	2.4	8.6
O=C(CSc1nc2ccncc2[nH]1)Nc1ccccc1C(F)(F)F	5.2	-1.9	nt	-4.6	0.68	0.5	0.1
CCOC(=O)C(=O)N=Nc1c(O)[nH]c2ccccc12	3.3	2.3	nt	2.3	0.703	5.2	3.5
C[C@@H]1COC(=O)[C@@H](CC(=O)OC(C)(C)C)C/C=C\C[C@@H](CC(=O)NCCO)C(=O)N1	nt	-0.2	i	2.9	0.718	0.4	nt
Cc1c(Cl)c(C(=O)NNC(=S)Nc2ccccc2)nn1C	-0.3	-1.0	nt	-5.0	0.671	2.9	91.5*
COc1ccc(C(=O)Nc2sc(C)c(C)c2CN2CCOCC2)cc1	0.9	0.6	i	-0.3	0.668	-11.8	10.0
CC1CN(CC(O)COCc2ccc3c(c2)OCO3)CC(C)O1 (stereo unspecified)	-1.1	0.8	nt	2.6	0.677	0.9	-4.9
CCOC(=O)C1CCCN(C(=O)c2ccc(OCC)cc2)C1 (stereo unspecified)	6.0	1.3	nt	-8.1	0.676	3.2	-0.5
CCC(c1nnnn1Cc1ccco1)N(CCc1ccccc1)Cc1cc2cc(C)ccc2[nH]c1=O (stereo unspecified)	1.9	-0.9	nt	1.2	0.728	-2.5	nt
CCc1nc2n[nH]c(N)c2c2c1CSC(C)(C)C2	2.2	3.0	nt	4.0	0.727	2.2	86.7*
CN(c1ccccc1C(=O)Nc1ccc(F)c(F)c1)S(C)(=O)=O	-0.8	-3.2	i	-0.5	0.674	-0.2	-2.0
CC(=O)Nc1ccc(NC(=O)C(C)OC(=O)c2c(NC(C)=O)sc(C)c2C)cc1 (stereo unspecified)	-4.0	-1.8	i	7.8	0.688	-0.1	-2.4
Continued.
SMILES	LANA-H2B inh	HNF4A DNA FP	FGF22 binding	B2AR ag	E coli growth	UCH37 inh	ALR inh
COc1ccc(N(CC(=O)O)S(C)(=O)=O)cc1OC	1.0	-2.7	nt	8.3	0.672	1.4	-3.8
CCn1nc(C)cc1C(=O)Sc1ccc(Cl)cc1Cl	-2.8	5.3	i	-3.4	0.639	3.1	-14.1
CS(=O)(=O)N1CCc2cc(C(=O)Nc3cccc([N+](=O)[O-])c3)ccc21	3.2	-3.1	i	8.9	0.653	3.1	nt
O=c1sc(Nc2ccccc2)nc2ccccc12	2.2	7.2	i	-0.5	0.693	2.0	1.6
CC(C)(C)N(Cc1ccccc1)C(=O)CCc1ccccc1	5.2	-4.0	i	20.9	0.711	2.8	-15.1
COC(=O)c1sccc1-n1cccc1C(=O)C(=O)N1CCOCC1	-3.9	39.7*	i	0.6	0.668	1.3	nt
CCN(CC)S(=O)(=O)c1cccc(C(=O)OCC(=O)Nc2ccccc2OC(F)F)c1	-6.7	-2.8	nt	3.4	0.713	0.4	nt
COc1cccc(/C=N/NC(=O)c2nc(-c3ccccc3)cc(-c3ccccc3)n2)c1	-0.1	-3.3	nt	6.3	nt	nt	-3.2
CCOC(=O)C1CCN(Cc2cn[nH]c2-c2ccccc2)CC1	-6.5	2.4	nt	-4.2	0.683	1.0	-0.2
COc1ccc(NS(=O)(=O)c2cc(-c3nnnn3C)ccc2OC)cc1	-2.2	-1.9	nt	-6.6	0.668	1.6	-25.0
COc1ccc(NC(=O)C2CCCN(S(=O)(=O)c3cccc4cccnc34)C2)c(OC)c1 (stereo unspecified)	-4.3	-1.2	nt	0.9	0.768	2.8	-11.2
COc1ccc(Nc2nc(-c3ccc4c(c3)NC(=O)CO4)cs2)cc1	1.1	0.3	i	4.1	0.699	4.1	-25.9
O=C(CNC(=O)c1ccc2c(c1)OCCO2)N/N=C/c1ccco1	5.1	2.7	i	-4.0	nt	nt	1.5
O=C(O)CCCNC(=O)c1cccc(C(=O)NCCCC(=O)O)n1	2.5	-2.1	nt	6.1	0.63	0.3	2.2
NS(=O)(=O)c1ccc(NC(=O)c2cc(-c3cc(Cl)ccc3O)n[nH]2)cc1	-2.2	-1.8	i	7.3	0.582	3.2	3.0
COCCNC(=O)/C(C#N)=C/C(C)=C/c1ccccc1	-0.2	0.3	i	6.8	0.65	7.6	-4.2
CC(=O)Nc1cc(NC(C)=O)cc(C(=O)OCC(=O)c2ccc3c(c2)NC(=O)CO3)c1	-4.1	7.4	i	2.2	0.686	5.9	-13.0
COc1ccc(C2(CNC(=O)c3cc([N+](=O)[O-])cc([N+](=O)[O-])c3)CCCC2)cc1OC	-0.2	-0.1	i	-23.4	0.696	0.4	-22.8
Cc1ccc2nc(Nc3ccccc3)c(C=O)c(=O)n2c1	-4.8	2.6	i	-1.8	0.66	1.4	-10.7
CCN1CCN(C(=O)C(N)Cc2ccccc2)CC1 (stereo unspecified)	1.4	6.2	i	1.2	0.634	3.4	9.3
O=[N+]([O-])c1ccc2c(c1)C(=Nc1ccccc1)c1ccccc1-2	nt	8.0	i	-1.3	0.607	4.2	nt
COc1ccccc1OCc1ccc(C(=O)NCCN(C)C)o1	0.7	-0.9	nt	0.1	0.707	-3.4	-2.7
CCOc1ccccc1N(C)C(=O)c1sc2ncn(CC(=O)N3CCCCC3C)c(=O)c2c1C (stereo unspecified)	-2.8	-8.5	i	-2.1	0.701	4.5	-5.5
CCc1cccc(N(C(=O)c2csnn2)C(C(=O)NC2CCCC2)c2cccnc2)c1 (stereo unspecified)	7.0	-3.4	i	-0.8	0.654	5.5	-10.8
CN1OC[C@@H]2CN(Cc3cc(Cl)cc(Cl)c3)[C@H](c3cccc(Br)c3)C[C@@H]21	nt	-1.2	i	7.8	nt	nt	nt
(more compounds)
SMILES	LANA-H2B inh	HNF4A DNA FP	FGF22 binding	B2AR ag	E coli growth	UCH37 inh	ALR inh
O=C(c1ccccc1Cc1ccccc1)N1CCN(S(=O)(=O)c2ccccc2F)CC1	0.5	-0.9	i	-4.7	0.711	3.2	-1.9
Cc1nn(-c2ccccc2)c(Cl)c1C(=O)NCc1ccccc1F	1.8	1.3	i	14.7	0.654	0.0	nt
CCCCN1C(=O)C(=O)N(CC(=O)c2ccc3c(c2)CCCC3)C1=O	0.3	-0.4	i	0.3	0.633	0.6	2.2
Cc1cc(C)c[n+](C2=C([O-])c3ccccc3C(=O)/C2=N\S(=O)(=O)c2cccs2)c1	-0.6	-0.5	i	8.0	0.615	27.0*	-22.8
COc1ccc(CCNC(=O)CCS(=O)(=O)Cc2ccccc2C)cc1OC	-1.9	0.2	i	-3.2	0.684	3.6	nt
O=[N+]([O-])c1ccc(Sc2nccn2Cc2ccccc2)c([N+](=O)[O-])c1	-5.1	0.1	i	-7.1	0.625	4.4	-8.7
Cc1cc(C)nc(Nc2ncc(O)n2-c2ccc(Br)cc2)n1	-6.5	-1.1	i	-0.1	0.648	3.1	-8.6
Cc1cccc(C)c1OCC(=O)NNC(=O)CNC(=O)c1ccc(OC(F)F)cc1	nt	2.3	i	4.3	0.682	1.7	4.7
COc1ccc(-c2cc(C(=O)N3CCN(c4ccccc4OC)CC3)no2)cc1	19.8*	0.4	i	-2.4	0.662	3.6	-4.2
Cc1ccc(S(=O)(=O)NCc2ccc(C(=O)NCc3cccnc3)cc2)cc1	-5.8	nt	nt	nt	0.716	4.3	7.1
CN(C)CCCNC(=O)/C(=C\c1ccc(-c2ccc(Br)cc2)o1)NC(=O)c1ccccc1	-5.6	3.5	i	31.4	0.664	-8.1	-33.3
Oc1[nH]c(N=C2N=c3ccccc3=N2)c2ccccc12	-1.0	1.9	i	-10.8	0.644	-18.3	-2.2
CN(C)S(=O)(=O)c1cccc(C(=O)OCC(=O)c2ccc3c(c2)NC(=O)CO3)c1	13.4	-0.9	i	-2.5	0.676	1.1	2.4
O=C(CCCn1ncn2c(cc3occc32)c1=O)NCc1cccc(Cl)c1	6.9	-2.7	i	-16.2	0.645	-2.1	3.0
COc1ccc(-c2cc(C(=O)O)nc3ccc4ccccc4c23)cc1OC	2.2	-6.0	i	4.5	0.665	-61.8	22.5
O=C(Nc1ccc(S(=O)(=O)N2CCCc3ccccc32)cc1)C1CCCO1 (stereo unspecified)	1.1	-0.5	i	-9.9	0.652	-0.1	-6.8
Cn1c2c(c(=O)n(C)c1=O)C(C(F)(F)F)(C(F)(F)F)N=C(c1ccccc1Cl)N2	3.8	1.4	nt	0.5	0.675	4.2	-7.2
O=C(CCn1c(=O)c2cccn2c2ccc(F)cc21)NCc1cccc(F)c1	2.0	0.1	i	-2.6	0.711	-3.1	-5.5
COc1ccc(C(=O)Nc2nc(C)cc(C)n2)cc1	-0.1	4.7	i	-19.9	0.725	-1.7	-3.6
O=c1nc(SCc2ccccc2Cl)nc(-c2ccc(Cl)cc2)[nH]1	-2.1	-1.4	i	2.0	nt	nt	-22.0
CC1CCN(CC(=O)Nc2ccccc2C(=O)c2ccccc2)CC1	2.6	2.7	i	-5.1	0.662	3.0	2.3
O=C1c2ccccc2CN1CCSC(=S)N1CCOCC1	-0.6	2.2	i	-16.7	0.691	1.2	0.3
O=S(=O)(c1ccc(S(=O)(=O)N(Cc2ccc(F)cc2)C2CCCC2)cc1)N1CCCC1	nt	0.3	nt	1.5	0.741	0.3	nt
Cc1nc(-c2ccc(-c3ccon3)s2)no1	-0.1	8.1	i	-5.7	0.69	0.4	-1.1
CCOc1ccc(NC(=O)COc2ccc(S(=O)(=O)N3CCOCC3)cc2)cc1	-7.9	0.2	i	-3.5	0.678	1.5	nt

Compound activity: PubChem BioAssay, several laboratories

Only part of the results is shown; count on the stated rates, not on these rows.
